Source: PubChem BioAssay (National Center for Advancing Translational Sciences (NCATS))
Anthrax LT inh: anthrax lethal toxin internalization inhibition; Potency, µM (top dose mostly 40 µM), for inactives: top-dose activity change, negative = inhibition, usual class: inhibitors; Cells, anthrax lethal toxin internalization, FRET ratio (460/530); 0.67% of 70,000 active; active = well fitted falling ratio curve with the 530 nm signal flat; inconclusive = other ratio curves, or a change in one channel alone; inactive = flat curves in the ratio and both channels; the % refers to the ratio; note: % is set by controls: 0 for no effect and ±100 for the full control effect; nearly all actives have a fitted effect of over 50% in size; tested in ME-180 cells; beta-lactamase reporter
Prx2 Sm inh: inhibitors of Schistosoma mansoni peroxiredoxin 2; S. mansoni Prx2 activity coupled to TGR/GSH (TGR is thioredoxin glutathione reductase), NADPH fluorescence loss, qHTS; some inactives read as strong as hits; Potency, µM; 0.07% of 65,000 active; active means full or partial inhibition curve with a strong effect at the top dose; inconclusive means weaker partial or single-point curve; inactive means no accepted curve; note: series up to 57 µM; many of its hits are not listed in these tables
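Coupled assay in which S. mansoni TGR passes NADPH reducing equivalents via glutathione to Prx2, which reduces H2O2. Compounds were preincubated 15 min at room temperature with 25 nM TGR/50 nM Prx2 mix. Kinetic NADPH fluorescence loss (ex 365/em 450 nm) was monitored.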
* = called active by the depositor; ? = inconclusive; . = no result given; & = joins results of further samples; [ ] = remark or other dose. Potency is the fitted concentration of half-maximal effect. These rows are one share of the data. The share of hits here may be higher or lower than overall.

SMILES	Anthrax LT inh	Prx2 Sm inh
C[N+]1(CCOS(=O)C23CC4CC(CC(C4)C2)C3)CCOCC1 (centres undefined)	-7%	>57
Cc1cc(C)nc(N2CCC(CNC(=O)CCc3ccccc3)CC2)n1	7%	>57
COc1ccc(-c2ccc(=O)[nH]n2)cc1	-6%	>57
Cc1ccc(C)c(S(=O)(=O)N2CCC(c3nc4c(nnn4Cc4ccc(F)cc4)c(=O)[nH]3)CC2)c1	?	>57
CCOc1ccccc1C(=O)Nc1ccccc1O	2%	>57
COc1ccc(C(c2nnnn2C2CCCC2)N2CCC(C)CC2)cc1 (centres undefined)	-21%	>57
Cc1cc(C)cc(OCC(=O)N2CCCCCC2)c1	1%	>57
COc1cc2c(cc1OC)/C(=C/C#N)NC(C)(C)C2	28%	>57
Cc1ccc(C)c(NS(=O)(=O)c2cc(C(N)=O)ccc2C)c1	-3%	>57
N#Cc1cccc(NC(=O)Nc2cccs2)c1	?	>57

Record cards (already shown). Order of screens: Anthrax LT inh, Prx2 Sm inh
C[N+]1(CCOS(=O)C23CC4CC(CC(C4)C2)C3)CCOCC1 (centres undefined) as listed: -7%, >57
COc1ccc(C(c2nnnn2C2CCCC2)N2CCC(C)CC2)cc1 (centres undefined) as listed: -21%, >57
Cc1ccc(C)c(S(=O)(=O)N2CCC(c3nc4c(nnn4Cc4ccc(F)cc4)c(=O)[nH]3)CC2)c1 as listed: ?, >57

The main list resumes, starting six compounds before the break.
SMILES	Anthrax LT inh	Prx2 Sm inh
CCOc1ccccc1C(=O)Nc1ccccc1O	2%	>57
COc1ccc(C(c2nnnn2C2CCCC2)N2CCC(C)CC2)cc1 (centres undefined)	-21%	>57
Cc1cc(C)cc(OCC(=O)N2CCCCCC2)c1	1%	>57
COc1cc2c(cc1OC)/C(=C/C#N)NC(C)(C)C2	28%	>57
Cc1ccc(C)c(NS(=O)(=O)c2cc(C(N)=O)ccc2C)c1	-3%	>57
N#Cc1cccc(NC(=O)Nc2cccs2)c1	?	>57
Cc1cc(N2CCN(C(=O)c3ccco3)CC2)n2ncc(-c3ccccc3)c2n1	5%	>57
Cc1ccc(NC(=O)Cn2cccc2)cc1Cl	2%	>57
CCCCN(CC)C(=O)C1CCC(=O)N(c2ccc(OC)cc2)C1c1ccc(OC)c(OC)c1 (centres undefined)	-7%	>57
CCCN(CCC)S(=O)(=O)c1ccc(C(=O)NCc2ccc3c(c2)OCO3)cc1	?	>57
O=C(CSc1nc(-c2ccccc2)cc(=O)[nH]1)Nc1ccccn1	?	>57
Cc1nc2cc(C(F)(F)F)ccc2n1C1CCN(Cc2nnnn2Cc2cccs2)CC1	2%	>57
Cn1cnc2cc(NS(=O)(=O)c3ccc(Br)cc3)ccc21	-4%	>57
COc1cc(-c2nnc(SCC(=O)Nc3cc(C)on3)n2C)cc(OC)c1O	1%	>57
Cc1ccccc1N1CCN(Cc2cccc(C(=O)O)c2)CC1	-2%	>57
CCc1nnc(NC(=O)CSc2nnc(C)n2CC2CCCO2)s1 (centres undefined)	6%	>57

Single entries from the list:
`CCCN(CCC)S(=O)(=O)c1ccc(C(=O)NCc2ccc3c(c2)OCO3)cc1` | Prx2 Sm inh = >57
`Cc1cc(N2CCN(C(=O)c3ccco3)CC2)n2ncc(-c3ccccc3)c2n1` | Anthrax LT inh = 5%

Next section.
SMILES	Anthrax LT inh	Prx2 Sm inh
Cc1cc2c(cc1C)/C(=C\C(N)=O)NC(C)(C)C2	4%	>57
CN1CCN(CC(=O)Nc2ccc(Cl)cc2C(=O)c2ccccc2)CC1	14%	>57
CCN1C(=O)CC(N2CCN(c3ccc(Cl)cc3)CC2)C1=O (centres undefined)	-13%	.
CC1=C(CC[C@H](C)CO)O[C@@H]2C[C@@H]3[C@H]4CC[C@H]5C[C@@H](O)CC[C@]5(C)[C@@H]4CC(=O)[C@@]3(C)[C@@H]12	-23%[8 µM]	>57
CCOC(=O)c1oc2c(O)c(O)ccc2c(=O)c1-c1nncn1-c1ccccc1	-5%	>57
CCCCC(CC)C(=O)Nc1ccc(Cl)cn1 (centres undefined)	-8%	>57
O=C(Nc1ccccn1)c1cccc(S(=O)(=O)N2CCOCC2)c1	0%	.
COCN(C#N)c1nc(OC)nc(OC)n1	7%	.
C[C@H](OP(=O)(O)O)[C@H](N)C(=O)O	-8%[8 µM]	>57
O=C(CN(C(=O)CCC(=O)Nc1nccs1)c1ccc(F)cc1)NCC1CCCO1 (centres undefined)	2%	>57
CCN1CCN(c2oc(COc3ccc(-c4ccccc4)cc3)nc2C#N)CC1	?	>57
CCOC(=O)C(Cc1c[nH]c2ccccc12)NC(=O)c1ccco1 (centres undefined)	8%	>57
COC(=O)c1ccc(N/C(C)=C/C(=O)c2ccc(C)o2)cc1	?	>57
COc1ccc(C2N(C(=O)CN3CCOCC3)CCN2S(=O)(=O)c2ccccc2)cc1 (centres undefined)	14%	>57
c1ccc(Nc2cc(Nc3ccccc3)[nH]n2)cc1	?	>57
COCCCn1c(SCC(=O)n2c(C)c(C)c3ccccc32)nnc1-c1ccoc1C	-23%	>57
CC(CC(=O)O)CC(=O)Nc1ccccc1C(=O)O (centres undefined)	3%	>57
N#Cc1nc(-c2cccs2)oc1N1CCN(Cc2ccccc2)CC1	?	.
CC1Cc2cc(-c3csc(NC(=O)Cc4cccs4)n3)ccc2N1S(C)(=O)=O (centres undefined)	?	>57
Cc1nc(N=Nc2ccc(S(=O)(=O)O)cc2S(=O)(=O)O)c(COP(=O)(O)O)c(C=O)c1O	-3%&-11%	>57&>57
Cc1nc(C)c(C(=O)Nc2cccc(Cl)c2)o1	.	>57
O=C1c2ccccc2-c2nc3ncnn3c(-c3ccccc3)c21	-4%	>57
O=C1CC(O)(C(F)F)Oc2ccc3ccccc3c21 (centres undefined)	-17%	>57
COC(=O)Nc1sc2c(c1C(=O)NCc1ccco1)CCC2	?	>57
CN(CCC#N)C(=O)Cn1nc(Cc2ccncc2)c2ccccc2c1=O	-4%	>57
CCOc1cc(C(=S)N2CCOCC2)ccc1O	5%	.
Clc1ccc(COC(Cn2ccnc2)c2ccc(Cl)cc2Cl)cc1 (centres undefined)	?	.
CC1CCN(c2ccc(C(=O)O)cc2)CC1	0%	>57
Cc1cc(C(=O)NNCc2ccccc2)no1	?	>57
Cc1cc(N2CCN(c3cccc(C(F)(F)F)c3)CC2)n2ncnc2n1	0%	>57
CCN(C(=O)c1cn(C)c(=O)c2cc(OC)c(OC)cc12)c1cc(C)ccc1C	10%	>57
CCCCOc1ccc(C(=O)OC(C)CN(C)C)cc1 (centres undefined)	-10%	>57
O=c1oc2ccccc2n1CSc1nc2ccccc2s1	-21%	>57
COc1ccccc1NC(=O)Cn1nnc(-c2ccccc2NC(=O)c2cccs2)n1	-1%	>57
OC(COc1ccc2cc(Br)ccc2c1)CN1CCN(c2ccccn2)CC1 (centres undefined)	?	>57
COc1ccc2[nH]cc(CCNc3ncncc3-c3ccccc3C(F)(F)F)c2c1	?	>57
Cc1c(C)[n+](=O)c(-c2ccc(F)cc2)c(C)n1[O-]	-7%	.
COc1ccc(CN(C(=O)CN2C(=O)COc3ccccc32)C2CCCC2)c(OC)c1	?	>57
CSCCC1NC2(C(=O)Nc3c2ccc(Cl)c3C)[C@@H]2C(=O)N(C3CCCC3)C(=O)[C@H]12 (some centres undefined)	-5%	>57
Cc1c(O)ccc(C(=O)COc2ccccc2F)c1O	10µM*	>57

Other entries
mol,Anthrax LT inh,Prx2 Sm inh
CCCCCOC(=O)Nc1ccc(S(=O)(=O)Nn2cnnc2)cc1,-7%,>57
COc1ccccc1N(CN1C(=O)c2ccccc2C1=O)C(=O)c1cccnc1,-2%,>57
COCCNC(=O)CN(C(=O)Cn1nnc2ccccc21)c1ccc(F)c(Cl)c1,-10%,>57
O=C1OC2(c3cc(Br)c(O)c(Br)c3Oc3c2cc(Br)c(O)c3Br)c2c(Cl)c(Cl)c(Cl)c(Cl)c21,?,.
CC(C)C[C@@H](CC(=O)N[C@@H](CCCN)CC(=O)N[C@@H]1CCCC[C@H]1C(=O)N[C@H](CC(=O)N[C@@H](CCC(=O)O)CC(=O)O)CC(C)C)NC(=O)[C@@H]1CNCC[C@H]1N,-16%,>57
Cc1ccc(C(=O)O)cc1S(=O)(=O)N1CCOCC1,-10%,>57
CS(=O)(=O)Nc1ccc(-c2n[nH]c(=S)n2-c2ccccc2)cc1,3%,>57
COc1ccc(CNC(=O)CCCCCn2c(SCC#N)nc3cc4c(cc3c2=O)OCO4)cc1,4%,>57
c1ccc2sc(N3CN(CCN4CCOCC4)CN(c4nc5ccccc5s4)C3)nc2c1,9%,>57
CC(C)N(CCNC(=O)C1CCN(S(=O)(=O)N2CCOCC2)CC1)Cc1ccccc1,?,>57
C/C(CCN1CCCc2nc(C)c(C)cc21)=N\OC[C@@H](O)[C@@H]1O[C@@H]2OC(C)(C)O[C@@H]2[C@H]1O,?,.
Oc1c(C(c2ccccc2)N2CCCCC2)sc2ncnn12 (centres undefined),11%,>57
CCOC(=O)CSc1nnc(CNc2cccc(Cl)c2)n1-c1ccccc1,-1%,>57
Cc1ccc(NC(=O)Cn2nnc(C(=O)Nc3ccc(C)c(C)c3)c2N)cc1,19%,>57
CCOC(=O)C(C)Sc1nc2c(c(=O)[nH]c(=O)n2C)n1CCc1ccccc1 (centres undefined),2%,>57
Cc1ccc(S(=O)(=O)NC(C)C(=O)Nc2ccc(C(N)=O)cc2)cc1 (centres undefined),?,>57
CCOC(=O)Cc1cc(=O)n2[nH]c(C)c(-c3ccc(OC)cc3)c2n1,-2%,>57
O=c1oc2ccccc2c2c1ncn2-c1ccccc1,-7%,>57
O=C(Nc1sc2c(c1C(=O)O)CCC2)c1cccs1,-7%,>57
CC(=O)NCCNc1nc(-c2cccnc2)nc2ccccc12,16%,>57
CCOc1ccc(OCCCCN(C)C)cc1,-2%,.
CN(C)c1ccc(-c2nccc(NCc3cccs3)n2)cc1,?,>57
CS(=O)(=O)Nc1cccc(-c2ccc3ncnc(NC4CC4)c3c2)c1,?,>57
Cc1c2c(n3c(nc4ccccc43)c1C#N)N(Cc1cccnc1)CC2,-3%,>57
O=C(NCc1ccco1)C(c1ccccc1F)N(CC1CCCO1)C(=O)Cn1nnc2ccccc21 (centres undefined),0%,>57
COC(=O)c1cc(C(=O)OC)cc(N2C(=O)CC(N3CCN(c4ccccc4)CC3)C2=O)c1 (centres undefined),-1%,>57
Cc1ccc2cc(CN(CC3CCCO3)C(=O)c3ccco3)c(=O)[nH]c2c1C (centres undefined),0%,>57
CCn1c(SCC(=O)Nc2nc3ccccc3s2)nc2c(c1=O)SC(C)C2 (centres undefined),17%,>57
Cc1nn(-c2ccc(F)cc2)c2sc(C(=O)OC3CCOC3=O)cc12 (centres undefined),?,>57
O=C(c1ccncc1)N1CCC2(CC1)CN(c1ncccn1)C2,5%,>57
COCCN1C(=O)C(O)=C(C(C)=O)C1c1ccc(OC)c(OC)c1 (centres undefined),-7%,>57
CC1Cc2ccccc2N1CC(=O)NC(=O)NCc1ccco1 (centres undefined),-3%,>57
O=C(CN(Cc1ccco1)C(=O)c1cc(=O)[nH]c2ccccc12)Nc1ccccc1C(F)(F)F,-7%,>57
Cc1c(NC(=O)c2ccc3c(c2)OCO3)cccc1-c1nc2ncccc2o1,?,>57
CCOC(=O)c1ccc(NC(=O)c2cc(S(=O)(=O)N3CCOCC3)ccc2O)cc1,11%,>57
C=CCn1c(C)cc(C(=O)CSc2nc3ccccc3c(=O)[nH]2)c1C,?,>57
CC(Sc1nncn1C)C(=O)Nc1ccccc1-c1ccccc1 (centres undefined),4%,>57
C=C1CC(C)OC(c2ccccc2OCC(O)CN2CCCCC2)C1 (centres undefined),-2%,>57
COc1ccc(CNC(=O)c2cc3c(=O)n4ccccc4nc3n(CC3CCCO3)c2=N)cc1 (centres undefined),4%,>57
COC(=O)C1CCN(C(c2cc(OC)c(OC)c(OC)c2)c2sc3nc(C)nn3c2O)CC1 (centres undefined),-4%,>57
Cc1ccc(-c2ccc(CCC(=O)O)n2CC(=O)O)cc1,-6%,.
CCCS(=O)(=O)N1CCCC(C(=O)NCCCN2CCN(c3ccccc3F)CC2)C1 (centres undefined),-1%,>57
O=C(Nc1ccccc1)N1CC[C@@]2(CCCN(C(=O)c3cc(C(F)(F)F)cc(C(F)(F)F)c3)C2)C1,-11%,>57
COc1cccc(Nc2ncc3nc(C)c(=O)n(C4CC4)c3n2)c1,5%,>57
COc1ccccc1N1CCN(C(=O)CSc2nnc(-c3ccoc3C)o2)CC1,-2%,>57
O=C(c1cnn(-c2nc3ccccc3s2)c1)c1ccccc1O,-9%,>57
O=C(NC[C@@H]1CCCCN1)c1cc(OCC(F)(F)F)ccc1OCC(F)(F)F,-1%[3.58 µM],>57
CCCSc1nc(N)c2c3c(sc2n1)CN(C)CC3,-7%,>57
